# Bioassay records as filed in PubChem.
# HIV Env fusion = HIV envelope-mediated fusion inhibition; AID 651610; 360,000 compounds, 1.1% hits; inhibition, % at 12.3 µM; HeLa-JRFL Env/CEM21 cell fusion, luciferase;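 active means mean replicate inhibition score of at least 50 and every replicate individually at or above 50; inconclusive means only one of the two criteria met; inactive means mean below 50 and not all replicates reaching 50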;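 further: 0% = plate neutral controls and 100% = maraviroc near 300 nM; one replicate is shown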
# PABP FP inh = blocks human PABP binding to poly(A) RNA. fluorescence polarization. AID 2014. P11940. 290,000 compounds, 1% hits. inhibition, % at 35 µM;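 active means 50% or more with normal probe brightness, or confirmed in later tests; inconclusive means above 50% with abnormal brightness, or retests that disagree; inactive means below 50% or failed in later tests; about a fifth of its hits are not listed in these tables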;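 further: calls also rest on retests at 20 µM and on dose response follow-up; controls were probe without protein and protein plus probe with vehicle; some compounds called inactive have numbers as strong as hits; many hits fall short of the cut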
# eIF4H FP inh = inhibitors of RNA binding by human eIF4H. Q15056. eIF4H fluorescence polarization binding assay. inhibition, % at 35 µM. 290,000 compounds, 0.94% hits;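 active means 50% or more with normal probe brightness, or confirmed in later tests; inconclusive means above 50% with abnormal brightness, or retests that disagree; inactive means below 50% or failed in later tests; about a fifth of its hits are not listed in these tables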;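 further: calls also rest on retests at 20 µM and on dose response follow-up; 0% = protein and probe with vehicle and 100% = probe without protein; strong numbers were not always called active; many hits fall short of the cut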
# Yeast UUG start = yeast start codon fidelity modulation; S. cerevisiae UUG-firefly luciferase reporter, luminescence/redox ratio; activity score, % at 18.7 µM; 350,000 compounds, 0.13% hits; AID 602363;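 active means replicate mean at a twofold rise or more, about +100% in these data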;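 further: firefly luciferase made from a UUG start codon reports start codon fidelity; reporter light over untreated wells divided by growth signal over untreated wells; some hits fall short of that in this replicate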
# CSC inhib = cancer stem cell inhibition; 300,000 compounds, 1.1% hits; cancer stem cell-like cells viability, luminescence; AID 2717; inhibition, % at 7.5 µM;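 active means mean at 75% or more and at least half the replicates too; inconclusive means mean and replicates disagree; tested in HMLE shEcad cells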;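 further: 0% = median of negative and 100% = median of positive control wells; the first replicate is given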
# MT1-MMP act inh = blocks activation of human MT1-MMP; HT1080 RFP-PRO-GFP cells, GFP/RFP ratio fluorescence, overnight; percent of plate control window, DMSO zero; GFP/RFP ratio change, % at 20 µM; 360,000 compounds, 0.061% hits;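 active means GFP/RFP ratio change of at least 30% with cell ATP level not reduced by more than half and red fluorescence within 50% of control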; further: strong numbers were not always called active
#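 Material: RFP-PRO-GFP reporter HT1080 cells. Dosing: single-point 20 µM compound, 1% DMSO. Controls: DMSO and RFP-L50D-GFP cell wells. Timing: cells overnight before dosing, compound overnight, 37 °C, 5% CO2. Measure: GFP/RFP fluorescence ratio.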
# Rce1 inhib = yeast Ras-converting enzyme inhibition. 290,000 compounds, 0.27% hits. AID 2563. calls only. Q03530. yeast membranes, quenched prenylated peptide cleavage fluorescence;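 active means fall in fluorescence gain of 50% or more versus controls, with final raw signal at or below 3038400; inconclusive means same 50% fall but final raw signal above 3038400; inactive means fall in fluorescence gain under 50%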;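 further: plate controls were neutral control wells for no effect and wells lacking membranes for full effect; tested at 10 µM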
# Target sequence (Q03530 whole entry, looked up): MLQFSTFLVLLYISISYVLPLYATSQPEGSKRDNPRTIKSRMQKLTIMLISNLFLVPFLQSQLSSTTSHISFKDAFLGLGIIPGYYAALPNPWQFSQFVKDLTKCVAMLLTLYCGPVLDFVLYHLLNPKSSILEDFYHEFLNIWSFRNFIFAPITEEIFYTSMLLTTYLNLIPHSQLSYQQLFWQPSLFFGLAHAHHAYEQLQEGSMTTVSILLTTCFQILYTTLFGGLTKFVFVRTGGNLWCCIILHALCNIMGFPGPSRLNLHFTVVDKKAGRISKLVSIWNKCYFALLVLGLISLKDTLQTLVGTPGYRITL
# eIF4H FP inh retest = further read-out of eIF4H FP inh, marked with its call; inhibition, %; compound at 20 µM; confirmation average;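 mean of two retest wells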
# PABP FP inh retest = also measured in PABP FP inh; calls as there; inhibition, %; compound at 20 µM; confirmation repeats;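 mean of two retest wells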
# MT1-MMP act inh RFP = recorded beside MT1-MMP act inh, whose call it bears; RFP signal change, %; measured here: RFP expression control read;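 0 = vehicle wells; hits needed this value within 50% of zero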
# Active calls of the source: *; i = inactive; ? = inconclusive; . = no result given.
SMILES,HIV Env fusion,PABP FP inh,eIF4H FP inh,Yeast UUG start,CSC inhib,MT1-MMP act inh,MT1-MMP act inh RFP,Rce1 inhib,others
CCOc1ccccc1C(=O)Nc1cnn(Cc2ccc(F)cc2)c1,.,0,4,-14,.,2,-3,i,
COc1nc(NC(C)(C)C)nc(Oc2ccc(=O)n(-c3ccccc3)n2)n1,-75,9,2,-3,4,-5,3,i,
Cc1cccc(Oc2ccccc2NS(=O)(=O)c2ccc(CCC(=O)O)cc2)c1,.,.,.,-8,6,-5,-19,.,
COc1ccc(N2CCN(C(=O)c3cc(=O)c4cc(Cl)ccc4o3)CC2)cc1,24,1,-10,-8,-5,2,0,i,
Cc1ccc(CNC(=O)COC(=O)c2ccc(S(=O)(=O)N3CCOCC3)cc2)cc1,15,.,.,-14,-2,-3,6,.,
CCc1cc(C(=O)OC)c(NC(=O)CN2CCN(C(=O)C3CCCO3)CC2)s1 (stereo unspecified),-6,-1,4,-14,2,-1,-3,i,
COc1ccc(N(C(=O)c2cccc([N+](=O)[O-])c2)S(=O)(=O)c2cccs2)cc1,-7,4,2,.,6,3,0,i,
COc1ccc(C(CC(=O)N2CCCCC2)NC(=O)C(F)(F)F)cc1 (stereo unspecified),-10,-7,14,-7,-10,1,3,i,
Cc1c(Cl)cccc1NC(=O)CSc1ncnc2c1cnn2CCO,13,15,-9,-10,12,5,3,i,
CCc1c(C#N)c(SCCC(=O)Nc2ccc(C)cc2)nc2c1C(=O)CC(C)(C)C2,.,-2,2,-16,40,-2,-2,i,
Cc1cccc(Cn2ccc(N)n2)c1,14,-3,0,.,-13,7,5,i,
COc1ccc(OC)c(C(=O)c2coc3ccc(O)c(CN4CCOCC4)c23)c1,0,2,-5,-9,-3,-1,-7,i,
N#Cc1c(-c2ccccc2F)cc(-c2cccnc2)nc1N,-44,18,-5,6,-1,3,3,i,
O=S(=O)(NCc1ccccc1)c1ccc2c(c1)OCCO2,10,8,-9,-20,-15,0,-3,i,
CCn1ccnc1CNC(=O)c1ccc(OC2CCN(C(=O)COC)CC2)cc1,-8,7,-2,-15,.,2,3,i,
O=C1NC[C@@H](c2ccccc2)OC(=O)[C@H](Cc2ccc(F)cc2)C/C=C\C[C@H]1CC(=O)N(CCO)Cc1ccccc1,-1,.,.,11,.,2,-5,.,
CCOCCCNC(=O)CNC(=S)N(Cc1ccc(C)cc1)Cc1ccco1,-2,-13,-1,.,-3,-4,-3,i,
N#CCN(C(=O)CSc1nnc(C2CC2)n1C1CC1)c1ccccc1,-6,.,.,-10,.,0,6,.,
CCn1c(SCC(=O)Nc2ccc(N(C)C)cc2)nnc1-c1ccco1,-5,3,-10,-2,-9,3,2,i,
CCCCCn1c(CN2CCCCC2CC)nc2c1c(=O)n(C)c(=O)n2C (stereo unspecified),.,-6,-8,-8,-13,2,0,i,
CCS(=O)(=O)N1CCN(c2ccc(S(=O)(=O)N3CCOCC3)cc2)CC1,14,-7,-2,-16,-16,6,10,i,
CCCCn1nc(C(=O)N2CCN(S(=O)(=O)c3ccccc3)CC2)c2ccccc2c1=O,6,.,.,.,-18,-2,-5,i,
Cc1cccc(C(=O)Nc2cccc3cccnc23)c1,-48,-1,-3,4,.,-4,-3,i,
OC(COc1cccc(OCC(O)CN2CCCC2)c1)CN1CCCC1 (stereo unspecified),24,15,-1,-21,5,9,11,i,
COc1ccc(-c2noc(CCC(=O)N3CCN(c4ccccc4)CC3)n2)cc1,9,.,.,15,.,5,1,.,
O=C(COc1ccccc1)Nc1c(C(=O)N2CCC(N3CCCCC3)CC2)oc2ccccc12,0,0,3,-22,-6,-1,0,i,
COC(=O)c1ccc(CO/N=C/c2cccc([N+](=O)[O-])c2)cc1,7,5,-5,0,-4,1,3,i,
COc1cccc(OC)c1OCCOc1ccccc1OC(C)C,.,6,4,-11,-6,-3,-2,i,
C#Cc1cccc(-n2nnc(C(C)=O)c2C)c1,17,2,-6,-14,-1,-1,-1,i,
CC(C)c1ccc(OCC(=O)NCc2ccccc2)cc1,1,6,-10,-12,1,-2,0,i,

# The closing four compounds of the section before open the next one.
SMILES,HIV Env fusion,PABP FP inh,eIF4H FP inh,Yeast UUG start,CSC inhib,MT1-MMP act inh,MT1-MMP act inh RFP,Rce1 inhib,others
COC(=O)c1ccc(CO/N=C/c2cccc([N+](=O)[O-])c2)cc1,7,5,-5,0,-4,1,3,i,
COc1cccc(OC)c1OCCOc1ccccc1OC(C)C,.,6,4,-11,-6,-3,-2,i,
C#Cc1cccc(-n2nnc(C(C)=O)c2C)c1,17,2,-6,-14,-1,-1,-1,i,
CC(C)c1ccc(OCC(=O)NCc2ccccc2)cc1,1,6,-10,-12,1,-2,0,i,
Nn1c(-c2ccccc2)cc(-c2ccccc2)cc1=O,-3,.,.,-1,29,4,-1,i,
COCCn1nnnc1C(c1cc2cc(C)cc(C)c2[nH]c1=O)N1CCN(c2ccccc2F)CC1 (stereo unspecified),.,16,-4,7,-12,-3,-1,i,
Cc1ccc(-n2c(CCC(=O)O)ccc2-c2cccs2)cc1,.,6,10,-20,-11,-3,9,i,
Cc1ccc(S(=O)(=O)N2CCCC2)cc1C(=O)NCc1ccccc1CN1CCCC1,.,.,.,1,8,-3,0,.,
COc1ccc(C(=O)NCC(=O)OCCOc2ccc(Cl)cc2)cc1OC,19,.,.,-16,3,-4,2,.,
COc1ccc(CCNS(=O)(=O)c2ccc3[nH]c(=O)[nH]c3c2)cc1,-5,.,.,-9,-6,-1,2,.,
CCOC(=O)c1cc(-c2ccc(C)o2)n[nH]1,.,1,-4,6,10,6,7,i,
CC(=O)NNc1cc(N2CCOCC2)nc(N2CCOCC2)n1,-1,-5,?,3,7,9,9,i,
NC(=O)c1c(NC(=O)Cn2nc(C(=O)O)c3ccccc3c2=O)sc2c1CCCC2,-38,4,1,.,18,-5,1,i,
O=S(=O)(NCc1ccc(Cl)cc1Cl)c1ccc(N2CCOCC2)nc1,9,8,-3,-12,-1,0,3,.,
O=C(Nc1ccc(Cl)cn1)c1cccc2ccccc12,-70,0,-3,8,59,-4,-10,i,
CN(C(=O)c1cccc(NC(=O)Cc2ccc(NC(=O)C3CCN(C(=O)C4CC4)CC3)cc2)c1)C1CC1,5,.,.,1,.,3,1,.,
Cc1c(Cl)c([N+](=O)[O-])nn1CC(=O)N1CCN(Cc2ccccc2)CC1,6,7,-4,.,1,0,0,i,
Cc1cc(C=C(C#N)C#N)c(C)n1-c1ccccc1,.,-5,-2,-6,6,1,0,i,
Cn1c(=O)c2c(nc(NCc3ccco3)n2CC(O)COc2ccccc2)n(C)c1=O (stereo unspecified),.,0,-12,-2,13,5,3,i,
CN1CCN(C(=O)CN(C2CCCCC2)S(=O)(=O)c2ccccc2)CC1,12,11,-6,-25,.,-3,-1,i,
CN1CCN(C(=O)c2cc3c(=O)n4ccccc4nc3s2)CC1,-1,8,-4,-14,-3,3,6,i,
O=C(NCc1ccccn1)c1nc(Cn2ccc([N+](=O)[O-])n2)no1,1,-4,-4,-6,6,2,4,i,
CN(C(=O)c1cccc(NC(=O)Cc2ccc(NC(=O)C3CCCN(S(=O)(=O)c4cccc([N+](=O)[O-])c4)C3)cc2)c1)C1CCCC1 (stereo unspecified),5,.,.,-16,.,-3,-14,.,
CC(=O)c1cccc(N(C(=O)c2csnn2)C(C(=O)NC2CCCC2)c2ccccc2)c1 (stereo unspecified),32,-10,-3,-26,-27,1,3,i,
COc1cccc(-c2cccc(NC(=O)C3CCN(Cc4cccc(C)n4)CC3)c2)c1,.,-2,1,-20,-5,5,5,i,
FC(F)(F)c1nnc(-c2ccccc2)nc1Oc1ccc(Cl)cc1Cl,.,6,12,-11,.,-2,-1,i,
O=C(Nc1ccccc1[N+](=O)[O-])C1(c2ccccc2)CCOCC1,14,45,-3,-9,-5,1,2,i,
Cc1ccc(Cn2c(C)nc3c(c2=O)c2nc4ccccc4nc2n3Cc2ccco2)cc1,.,18,18,-16,15,3,3,i,
CCCn1c(N)c(C(=O)CN2CCN(S(=O)(=O)c3cccs3)CC2)c(=O)[nH]c1=O,-79,-3,-3,-3,.,2,5,i,
CCOc1ccc(C(=O)NCc2cccnc2)cc1,.,4,9,-7,-1,4,1,i,
CCOC(=O)C1CN(S(=O)(=O)c2ccc(C)cc2)C1,-16,1,-10,-12,-7,4,4,i,
O=[N+]([O-])c1ccc2c3n([n+]([O-])c2c1)CCN=C3c1ccc(Cl)cc1,1,.,.,-6,-4,-8,0,?,
O=C(NC(=S)Nc1cccnc1)c1cc2ccccc2o1,-47,-6,34,.,-7,-2,-3,i,
O=C(Nc1ccccc1)c1cc(C2CCCCN2C(=O)CCc2ccccc2)on1 (stereo unspecified),14,.,.,-25,.,-3,-4,.,
CC1CCCC2(C1)NC(=S)c1c(sc3c1CCCC3)N2 (stereo unspecified),-70,39,14,-9,5,2,7,i,
COCCN1C=C2C(=O)C(C)(OC(=O)CCc3ccccc3)C(=O)C=C2C=C1c1ccc(C#N)cc1 (stereo unspecified),-1,45,72,-9,-8,0,6,i,eIF4H FP inh retest=28;PABP FP inh retest=37
COCCSc1ccccc1C(=O)Nc1ccc(Cl)cc1,-24,-7,-6,.,7,1,0,i,
CC1=N/C(=C\c2ccc([N+](=O)[O-])cc2)C(=O)N1c1ccc(F)cc1F,11,0,2,7,-1,-3,1,i,
CCOc1cc(C)nc(NCCc2ccc(OC)c(OC)c2)n1,.,-14,-3,-2,-9,-8,-4,i,
Cc1ccc(C)c(S(=O)(=O)NCc2ccc(C(=O)N3CC(C)OC(C)C3)cc2)c1 (stereo unspecified),6,5,-9,-5,-20,6,3,i,
COc1ccc(/C(O)=C2/C(=O)C(=O)N(CCN3CCOCC3)C2c2ccc(C)cc2)cc1 (stereo unspecified),6,6,-17,-12,.,3,3,i,
C[C@H](NC(=O)OCc1ccccc1)C(=O)NNC(=O)[C@H](Cc1ccccc1)NC(=O)OC(C)(C)C,26,9,-4,-6,29,-4,1,i,
CC1(C(=O)NS(=O)(=O)c2cccc(F)c2)CCN1C(=O)Cc1cccs1 (stereo unspecified),-9,.,.,-11,.,-2,2,.,
COC(=O)c1cc(C(=O)c2ccccc2)n2c(=O)/c(=C\N(C)C)sc12,4,-4,-7,.,1,.,.,i,
Cc1[nH]nc(SCC(=O)NCc2ccccc2)c1[N+](=O)[O-],-18,-2,-1,-15,-13,-1,1,i,
CCOC(=O)N1CCN(Cc2nc3cc(NC(=O)CC(C)C)ccc3n2C)CC1,-2,-4,-1,1,-1,-1,0,i,
O=C(CSc1nc(O)cc(=O)n1-c1ccccc1)NC1CCCCC1,.,5,-6,.,-12,0,8,i,
CCOc1ccccc1CNCCNC(=O)c1nonc1N,-6,10,-9,.,-3,-6,-3,i,
Cc1ccsc1/C=N/Nc1cccc(C(=O)O)c1,68*,-4,1,.,-7,1,2,i,
O=C(O)Cc1c[nH]c2ccccc12,.,.,.,-11,1,0,7,i,
Cc1ccccc1NC(=O)c1cc(=O)c2ccccc2o1,-53,-2,8,-8,-13,-3,-9,i,
COCCn1c(=O)c2cc3c(=O)n(CCOC)c(=O)c3cc2c1=O,.,-3,1,-4,-5,5,3,i,
S=C(NCc1ccco1)NCC1CCCO1 (stereo unspecified),-1,-4,7,-18,-7,0,1,i,
